Screens from PubChem BioAssay.
MgrA DNA FP – S. aureus MgrA activity modulators, primary screen, biochemical, S. aureus Newman, fluorescence polarization. MgrA-DNA binding. inhibition, %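 (about 10 µg/mL by stock and volumes)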. actives 0.13% (n = 84,000). AID 602314, 2012;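 active = above 50% in either of two replicates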;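 also: 0% = protein plus DNA without compound and 100% = DNA alone without protein; higher means less MgrA bound to DNA so lower polarization; one replicate is shown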
Sa helicase inh – inhibitors of S. aureus replicative helicase, primary screen, biochemical, fluorescence unwinding readout | inhibition, %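 (tested at about 80 µM)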 | actives 0.05% (n = 120,000) | replicative DNA helicase (DnaC/DnaB), Staphylococcus aureus | purified S. aureus helicase, fluorescence unwinding assay; about half of the hits fall short of the stated cut | AID 485395, 2010;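 active = both duplicates at 50% or more, or one of them with a favoured structure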;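 also: 0% = mean of negative control wells and 100% = mean of positive control wells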
Numbers without * were called inactive; · = no result given; & = joins results of further samples. Only part of the results is shown; the hit share may differ from the screen's.

SMILES | MgrA DNA FP | Sa helicase inh
Cc1nn(-c2ccccc2)c2nc(-c3ccc4c(c3)OCO4)cc(-c3nnc4n3CCCCC4)c12 | · | -2.0
Cc1cccc(NC(=O)C(C)N2CCN(c3ccccc3O)CC2)c1 (stereo not given) | · | -14.0
O=C(O)c1ccc(C=Nc2ccc(C(=O)O)cc2)cc1 | -2.9 | 13.0
COc1ccc(OC)c(CNc2ccc3c(c2)nc(C)n3C)c1 | -2.2 | 16.0
CNc1ccccc1C(C)(C)c1cc(-c2ccccc2)no1 | 2.1 | -1.0
CC1CN(S(=O)(=O)c2cccc(C(=O)Nc3ccccc3)c2)CC(C)O1 (stereo not given) | -0.2 | 3.0
CN(C)CC(O)Cn1c2ccccc2c2ccccc21 (stereo not given) | -0.8 | 8.0
CC1(C)CC(=O)C(=CN2CCOCC2)C(=O)C1 | 4.6 | 3.0
CN(Cc1ccccc1)C(=O)CNC(=O)Cn1ccc2ccccc2c1=O | -0.5 | 6.0
CCCC(=O)C1=C(O)C(C(=O)OC)C(C)(C)CC1=N (stereo not given) | -0.1 | 1.0
O=C(O)/C=C/C(=O)c1ccc(C2CCCCC2)cc1 | 40.6 | ·
CC(NS(=O)(=O)c1ccccc1)C(=O)O (stereo not given) | · | -3.0
CC1CCCCC1NC(=O)CN1CCC(NC(=O)Nc2ccccc2)CC1 (stereo not given) | 0.1 | 2.0
CN(C)c1ccc(/C=N/N=C2/C(=N/O)CCc3nonc32)cc1 | 0.6 | 1.0
Cc1ccc(C(=O)NCC(=O)NC2CCCCC2)cc1 | · | -22.0
COc1ccc(C(NC(=O)C2CC(=O)N(Cc3ccco3)C2)c2ccccc2)cc1 (stereo not given) | · | -3.0
CCOc1ccc2nc(N3CCC(C(=O)NC4CC4)CC3)sc2c1 | · | -1.0
O=C(c1ccc(CS(=O)(=O)Cc2ccc(Cl)cc2)o1)N1CCCC1 | 0.1 | 2.0
COc1ccc(/C=C/C(=O)Nc2ccc3nc4n(c(=O)c3c2)CCCC4)cc1 | -0.2 | 12.0
C=CCOC(=O)C1=C(C)OC(N)=C(C#N)C1c1c(C)nn(-c2ccccc2)c1Cl (stereo not given) | 1.7 | ·
COC(=O)C1C(=O)NC(SC)=C(C#N)C1c1ccccc1F (stereo not given) | · | 35.0
COc1ccc(-c2c(C)nn3c(NCC(OC)OC)cc(C)nc23)cc1OC | · | 14.0
Cc1cc(C)c2cc(C(=O)N(C)c3ccc(Cl)cc3)[nH]c2c1 | 7.8 | ·
Cc1cccc(-c2nnc(SCC(=O)OC(C)C)n2C)c1 | -0.9 | 4.0
CC1=C(C(=O)N(C)C)C(c2ccc(-c3ccccc3)cc2)NC(=O)N1 (stereo not given) | · | 36.0
CCC(CC)NC(=O)Cc1ccc(F)cc1 | 0.2 | 7.0
Cc1ccc(NC(=O)CSc2nccn2-c2ccc(Cl)cc2)cc1 | · | 13.0
O=C(c1cccs1)N1CCN(c2ncccn2)CC1 | -0.7 | 8.0
O=C(CN1C(=O)/C(=C\c2cccs2)SC1=S)Nc1ccccc1 | · | -10.0
CC1C(=O)C(C)C(c2ccccc2)NC1c1ccccc1 (stereo not given) | · | 2.0
O=C(/C=C/c1cccc(Cl)c1)Nc1ccc(N2CCOCC2)cc1 | 1.6 | -3.0
CCCSc1nnc2nc3c(nn12)c1ccccc1n3C | · | 7.0
FC(F)(F)c1cc(-c2ccc3ccccc3c2)nn1C(=S)N1CCCCCC1 | 2.7 | 12.0
N#CCCn1ncc(C#N)c1N | -1.7 | ·
CCOC(=O)c1sc(NN)nc1C | -1.6 | 10.0
Cc1ccc(C=Nc2cccc(C#N)c2)s1 | 0.7 | ·
c1cc2c(cc1C13CC4CC(CC(C4)C1)C3)n1nnnc1c1nnnn21 | -2.8 | 4.0
Cc1oc2c(CN(C)C)c(O)ccc2c(=O)c1-c1cscn1 | · | 6.0
CCCNS(=O)(=O)c1ccc(SC)cc1 | 3.0 | -22.0
CCCN(CC1CC1)Cn1c(=S)sc2ccccc21 | · | -5.0
Cc1cc2c3c([nH]c2cc1S(=O)(=O)NCCCN1CCOCC1)CC(C)(C)CC3=O | · | -2.0
CC(C)c1cc(C(C)C)c(S(=O)(=O)N2CC3C4C=CC(C4)C3C2)c(C(C)C)c1 (stereo not given) | 0.5 | 11.0
CCOC(=O)c1ccc(CNS(=O)(=O)c2c(C)ccc3nsnc23)o1 | -0.8 | 15.0
CO/N=C1\CC(C)(C)Cc2c(-c3ccn(C(=O)c4cccs4)n3)sc(SC)c21 | · | 0.0
COc1ccc(/C=C2\COc3ccccc3C2=O)c(OC)c1 | · | 18.0
Cc1cc2ncn(C(=O)c3ccccc3C(=O)O)c2cc1C | · | -15.0
O=C(NCc1ccco1)C1Cc2cc(Cl)ccc2O1 (stereo not given) | · | 11.0
O=C(Nc1cccnc1)C1=NN(C2CCS(=O)(=O)C2)C(=O)CC1 (stereo not given) | · | 8.0

Quoted at random: 4 records from the list.
SMILES | MgrA DNA FP | Sa helicase inh
Cc1oc2c(CN(C)C)c(O)ccc2c(=O)c1-c1cscn1 | · | 6.0
Cc1cc2ncn(C(=O)c3ccccc3C(=O)O)c2cc1C | · | -15.0
O=C(Nc1cccnc1)C1=NN(C2CCS(=O)(=O)C2)C(=O)CC1 (stereo not given) | · | 8.0
CCCN(CC1CC1)Cn1c(=S)sc2ccccc21 | · | -5.0

(more compounds)
SMILES | MgrA DNA FP | Sa helicase inh
CCOC(=O)c1sc2nc[nH]c(=O)c2c1C | -0.6 | 11.0
CCC(C)Sc1n[nH]c(=S)s1 (stereo not given) | -5.4 | ·
O=C(/C=C/c1cccs1)OCC1CCCO1 (stereo not given) | · | 14.0
COc1cc2c(c(OC)c1)C(c1ccccc1OC)CC(=O)N2 (stereo not given) | 0.6 | 7.0
O=c1oc2ccccc2cc1-c1nn(-c2ccccc2)cc1C=NCc1ccccc1 | 2.0 | 4.0
CCSc1nnc(CNC(=O)c2ccccc2)n1-c1ccccc1 | · | 20.0
COc1ccc(Br)cc1CNC(=O)c1cc2oc3ccccc3c2n1C | · | 4.0
CCC(=O)N1CCN(c2nc(-c3ccccc3)c3c(c2C#N)CCCC3)CC1 | · | -8.0
Cc1ccc(NC(=O)c2ccc(C#N)cc2)cc1 | · | -9.0
COc1ccc(N(C(=O)c2ccco2)S(=O)(=O)c2ccccc2)cc1 | 2.8 | 4.0
CCOC(=O)c1c(C)[nH]c(C(=O)CC(=O)OC)c1C | · | 8.0
O=C(NCc1cccnc1)C(=O)c1c(O)[nH]c2ccccc12 | 3.5 | -7.0
Cn1c(NCc2c(O)ccc3ccccc23)nc2ccccc21 | 0.0 | 11.0
CC(C)(C)c1ccc(C(=O)NNC(=O)c2ccc(C(C)(C)C)cc2)cc1 | 2.5 | ·
O=C(Cn1c(C(F)(F)F)nc2ccccc21)Nc1ccc(S(=O)(=O)NCc2ccco2)cc1 | · | 0.0
O=C(NC1CCCCC1)c1cccnc1Nc1ccccc1F | 1.1 | 5.0
CCC1(CC)Cc2ccccc2-c2nc3[nH][nH]c(=S)n3c(=O)c21 | 8.3 | 21.0
Cc1ccc(C(=O)NCc2ccccc2F)s1 | · | 15.0
O=C1OC2(c3ccccc3)C3CCCC2C13Sc1ccccc1 | 1.5 | 3.0
O=C(O)Cc1cc(=O)oc2c1ccc1ccccc12 | · | 8.0&9.0
O=C(Nc1nccs1)c1ccc([N+](=O)[O-])cc1 | -1.3 | ·
CC(C)C(=O)Nc1cccc(C(=O)Nc2nncs2)c1 | 0.0 | 1.0
O=C(CN1C(=O)c2cccnc2Oc2ccc(Cl)cc21)N1CCc2ccccc21 | -0.9 | -3.0
CCNC(=O)CC1C(=O)N(c2ccccc2)C(=O)N1CCC(C)C (stereo not given) | · | -1.0
COc1cc2nc(COc3ccccc3)oc(=O)c2cc1OC | 2.8 | 4.0
O=C(C(O)C(O)C(=O)N1CCCC1)N1CCCC1 (stereo not given) | -0.2 | ·
COc1ccc2[nH]c3c(c2c1)CCNC3=O | 1.0 | ·
N#Cc1c(/N=C/c2c(F)cccc2Cl)oc(-c2ccco2)c1-c1ccco1 | · | -8.0
O=C1OC2(CCCC2)OC(=O)C1=Cc1ccc(Br)cc1 | 0.9 | 15.0
Cn1c(=O)c2c(ncn2CCC(=O)NC2CCCCCCC2)n(C)c1=O | -3.9 | -1.0
O=c1cc(CSc2ccc(Cl)cc2)nc(N2CCCCC2)[nH]1 | 2.6 | -12.0
O=c1c2ccccc2nc(SCc2nnc(-c3ccccc3)o2)n1CCc1ccccc1 | 0.2 | 6.0
O=C(Nc1ccccc1C(=O)NCCCN1CCOCC1)c1ccco1 | -0.7 | 21.0
Cc1noc(C)c1C(=O)O | · | 2.0
CC(=O)N1CCC2(CC1)CC(=O)c1cc(OCC(=O)NCc3ccco3)ccc1O2 | · | 35.0
CCN(CC)C(=S)Nc1ccc(Cl)c(Cl)c1 | 0.7 | 9.0

Grouped by structure, the entries above with bromine
SMILES | MgrA DNA FP | Sa helicase inh
COc1ccc(Br)cc1CNC(=O)c1cc2oc3ccccc3c2n1C | · | 4.0
O=C1OC2(CCCC2)OC(=O)C1=Cc1ccc(Br)cc1 | 0.9 | 15.0

New compounds follow:
SMILES | MgrA DNA FP | Sa helicase inh
O=S(=O)(Nc1ccc(C2=NCCO2)cc1)c1ccccc1 | -2.5 | ·
COc1nccc(C(F)(F)F)c1C(=O)Nc1c(C)cccc1C | -1.9 | ·
COc1cccc(-n2c(=O)c3sccc3n(CC(=O)NCC3CCCO3)c2=O)c1 (stereo not given) | · | 4.0
c1ccc(C2CC(c3ccccc3)n3ncnc3N2)cc1 (stereo not given) | · | 10.0
Cn1ccnc1SCC(O)c1ccccc1 (stereo not given) | · | 24.0
Oc1ccc(CNC2CCN(Cc3ccccc3)C2)cc1 (stereo not given) | · | -5.0
CC(C(=O)Nc1ccc(Br)c(Cl)c1)N1C(=O)C2C3C=CC(C3)C2C1=O (stereo not given) | 0.2 | -2.0
N/C(=N\S(=O)(=O)c1cc(C(F)(F)F)cc(C(F)(F)F)c1)c1ccncc1 | 1.2 | ·
CC(Oc1ncnc2ccccc12)C(=O)Nc1cc(Cl)cc(Cl)c1 (stereo not given) | -1.9 | -17.0
COc1ccc(CC(C)Nc2ccc3c(c2)OCO3)cc1 (stereo not given) | 3.5 | 24.0
c1ccc2c(c1)C(=Nn1cnnc1)c1ccccc1-2 | -1.4 | 4.0
NC(=O)c1ccc(-c2ccccc2)cc1C(N)=O | 0.3 | 0.0

Reformatted: 2 of the compounds above
Values run as follows: MgrA DNA FP, Sa helicase inh
CCC1(CC)Cc2ccccc2-c2nc3[nH][nH]c(=S)n3c(=O)c21
  8.3, 21.0
Cc1ccc(C(=O)NCc2ccccc2F)s1
  ·, 15.0

Remaining list, next part.
SMILES | MgrA DNA FP | Sa helicase inh
COc1ccc2c(C)nc(N/C(N)=N/S(=O)(=O)c3ccc(C)cc3)nc2c1 | -6.1 | 6.0
Cc1cc(NNC(=O)c2ccc(Cl)cc2)nc2c1c(C)nn2C | · | -3.0
CCc1ccccc1NC(=O)NCc1ccccc1OC | -2.1 | 10.0
CNCC(=O)Nc1cccc2ccccc12 | · | -8.0
CC(=O)NC1C(=O)SC1(C)C (stereo not given) | 2.7 | 6.0
O=C(NCCc1ccccc1)c1ccc2ncccc2c1 | -2.5 | ·
CCc1ccc(NC(=O)C(CC)CC)cc1 | 0.4 | 6.0
C/C(CC1(O)C(=O)Nc2ccccc21)=N\O (stereo not given) | -1.4 | -8.0
O/N=C/c1cn(-c2ccccc2)nc1-c1ccccc1 | 0.9 | 3.0
CC1CCc2c(sc3ncnc(SCC#N)c23)C1 (stereo not given) | · | -3.0
O=C(Nc1nc2ccccc2n1CCN1CCOCC1)C1CCCCC1 | 0.0 | 2.0
N#CC1(NC(=O)COC(=O)c2ccc3c(c2)CCCC3)CCCCC1 | · | -8.0

Record cards (already shown). Order of values: MgrA DNA FP | Sa helicase inh
O=C(Nc1ccccc1C(=O)NCCCN1CCOCC1)c1ccco1 across the screens: -0.7 | 21.0
O=C(NCc1ccco1)C1Cc2cc(Cl)ccc2O1 (stereo not given) across the screens: · | 11.0
COc1ccc(CC(C)Nc2ccc3c(c2)OCO3)cc1 (stereo not given) across the screens: 3.5 | 24.0

Carrying on:
SMILES | MgrA DNA FP | Sa helicase inh
Cc1ccccc1Oc1ncnc2sc3c(c12)CCCC3 | -1.1 | -5.0
COC(=O)c1ccccc1NC(=O)c1cc(OC)c(OC)c(OC)c1 | 4.1 | ·
CC1=NN(c2ccccc2)C(=O)/C1=C\c1cn(CCC(=O)O)nc1-c1cc2ccccc2o1 | · | 9.0
CSC(=C(C#N)C#N)N1CCN(c2ccccc2)CC1 | · | 10.0
CCOC(=O)c1c(NC(=O)c2cccc(F)c2)sc(C(=O)Nc2cc(C(F)(F)F)ccc2Cl)c1C | 0.2 | ·
CCOc1cnc(C(=O)NN=C(N)N)o1 | · | 5.0
CC(C)Cn1c(=O)c2ccccc2n2c(CCC(=O)NCCCN3CCN(c4ccccc4F)CC3)nnc12 | · | -17.0
CC(OC(=O)COc1cccc(C(F)(F)F)c1)C(N)=O (stereo not given) | · | -1.0
CCN(CC)S(=O)(=O)c1c(C)nn(S(=O)(=O)c2ccccc2)c1C | · | 7.0
CNc1ccc(Cl)cc1C(=O)NCCc1ccc(OC)c(OC)c1 | -0.1 | ·
CCc1ccccc1Nc1nc(N)nc(CO/C(=C(\C#N)c2nnc3n2CCCCC3)C(F)(F)F)n1 | · | -2.0
Fc1cccc(F)c1C=Nc1cccnc1Cl | -2.6 | 4.0
CS(=O)(=O)N1CCCC(C(=O)NCc2cccnc2)C1 (stereo not given) | 7.0 | 5.0
COCCn1c(=NC(=O)c2ccccc2)sc2cc(OC)ccc21 | · | -1.0
CCOC(=O)c1cc(NC(=O)Nc2cc(C)ccc2C)c(C)nc1C | · | 0.0
CN(C(=O)CSc1nnnn1C)C1CCCCC1 | · | 8.0
c1ccc2sc(-c3ccc(CNCCCn4ccnc4)o3)nc2c1 | · | 0.0
CCN1C(=O)/C(=C2\SC(N3CCCCC3)=NC2=O)c2ccccc21 | · | 10.0
CCN(C(=O)CSc1nc2ccccc2nc1C)C1CCCCC1 | -1.2 | -5.0
